SARS PLP yeast: blocks SARS-CoV papain-like protease in a yeast assay; S. cerevisiae expressing SARS-CoV PLpro, growth rescue; control for the full effect not named in the record; Potency, µM (top dose mostly 32.9 µM), without a hit: top-dose activity, positive = growth rescue; 0.19% of 330,000 active; active means well fitted rising curve with a large enough effect; inconclusive means small, poorly fitted or top-dose-only effect; inactive means no such curve, though single readings can be large or run the other way; further: 0% is about no effect; nearly all actives have a fitted effect of over 55% in size; growth read by luminescence after 48 h
NS1 inh: influenza NS1 inhibition; S. cerevisiae slowed by influenza A NS1, growth recovery by OD600; Potency, µM (top dose mostly 46.1 µM), for inactives: top-dose activity, positive = more growth; 0.4% of 270,000 active; AID 2326; active means well fitted rising curve with a large enough effect; inconclusive means small, poorly fitted or top-dose-only effect; inactive means no such curve, though single readings can be large or run the other way; further: nearly all actives have a fitted effect of over 50% in size
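S. cerevisiae expressing influenza A NS1, grown in glucose, washed, then diluted 1:100 into pH 6.0 -URA galactose medium with 23 nl compound. Growth recovery read as OD600; NS1-free strain serves as control.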
StopGo reporter: FMDV 2A StopGo reporter, luciferase signal | Potency, µM (doses to about 57.9 µM), inactives show top-dose signal change, negative = less light | human cells with a luciferase reporter of 2A StopGo recoding; control for the full effect not named in the record | 1.2% of 410,000 active; active = well fitted falling curve with a large enough effect; inconclusive = small, poorly fitted or top-dose-only effect; inactive = no such curve, though single readings can be large or run the other way; tested in HEK293T cells; further: on the % scale 0 is the no-effect control and ±100 the full control effect; nearly all actives have a fitted effect of over 45% in size; luciferase light after 4 h
Lassa entry inh: inhibitors of Lassa virus binding or cell entry; Lassa virus pseudotype entry inhibition, cell reporter; control for the full effect not named in the record; Potency, µM (series often up to 37.9 µM), for inactives: top-dose activity change, negative = inhibition, most hits filed as inhibitors; 1.2% of 300,000 active; active means well fitted inhibition curve with a large enough effect; inconclusive means small, poorly fitted or top-dose-only effect, or effect the other way; inactive means flat fitted curve, though single readings scatter; tested in HEK293 cells; further: on the % scale 0 is the no-effect control and ±100 the full control effect; nearly all actives have a fitted effect of over 50% in size; luciferase read-out
RE007 growth inh: less growth of the S. pombe RE007 Vpr strain; AID 651644; S. pombe RE007 Vpr strain, BacTiter-Glo ATP luminescence, 24 h; control for the full effect not named in the record; Potency, µM (highest dose often 92.2 µM), for the others: top-dose activity change, negative = less growth; 0.21% of 360,000 active; active = well fitted falling curve with a large enough effect; inconclusive = small, poorly fitted or top-dose-only effect; inactive = no such curve, though single readings can be large or run the other way;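 further: on the % scale 0 is the no-effect control and ±100 the full control effect; nearly all actives have a fitted effect of over 50% in size; the assay follows cell death caused by Vpr and the record does not say whether a fall means rescue or toxicity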
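Fission yeast RE007 carrying one integrated HIV-1 vpr copy, seeded at OD 0.01 in PMG+AL medium with 23 nL pinned compound. Grown 24 h at 30 degrees; viability read by BacTiter-Glo luminescence after 5 min.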
Cruzain Triton: blocks cruzain activity in presence of Triton detergent. P25779. Potency, µM, without a hit: max response, negative = inhibition, usual class: inhibitors. purified cruzain, Z-FR-AMC fluorescence, 0.01% Triton. AID 1478. 0.43% of 200,000 active;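 further: plate controls were neutral wells for no effect and buffer without enzyme for full effect; nearly all actives have a fitted effect of over 40% in size; top concentration of the series not given in the record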
Target sequence (P25779 123-467 limits assumed): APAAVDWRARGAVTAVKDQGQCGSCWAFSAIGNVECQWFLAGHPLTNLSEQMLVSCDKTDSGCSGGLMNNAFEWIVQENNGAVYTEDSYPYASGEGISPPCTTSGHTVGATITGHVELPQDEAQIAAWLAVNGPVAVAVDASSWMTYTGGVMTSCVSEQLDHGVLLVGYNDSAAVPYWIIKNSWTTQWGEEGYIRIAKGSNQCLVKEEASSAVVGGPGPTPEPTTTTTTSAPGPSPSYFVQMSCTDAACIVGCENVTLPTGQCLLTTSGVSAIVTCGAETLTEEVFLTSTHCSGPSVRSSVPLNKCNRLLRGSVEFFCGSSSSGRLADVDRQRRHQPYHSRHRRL
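Read-out: AMC fluorescence (360 nm excitation, 450 nm emission), four reads over 2 min, first-to-third difference used. Conditions: cruzain 1.5 nM, Z-FR-AMC 2 uM, pH 5.5 acetate, 5 mM DTT, 0.01% Triton X-100.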
MARV entry inh: Marburg virus entry inhibition; Potency, µM (highest dose often 37.8 µM), for inactives: at the highest dose activity change, negative = inhibition, most hits filed as inhibitors; 1.8% of 300,000 active; AID 540276; Marburg virus pseudotyped entry inhibition, cell reporter; control for the full effect not named in the record; about a third of the inactives were read at about 46 µM; active = well fitted inhibition curve with a large enough effect; inconclusive = small, poorly fitted or top-dose-only effect, or effect the other way; inactive = flat fitted curve, though single readings scatter; tested in HEK293 cells; about a fifth of its hits are not listed in these tables; further: on the % scale 0 is the no-effect control and ±100 the full control effect; luciferase read-out
Cruzain inh noDet: blocks cruzain activity in detergent-free assay | P25779 | purified cruzain, Z-FR-AMC fluorescence, no detergent | Potency, µM, without a hit: max response, negative = inhibition, actives largely listed as inhibitors | 2.3% of 200,000 active | AID 1476;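 further: plate controls were enzyme without inhibitor for no effect and buffer without enzyme for full effect; nearly all actives have a fitted effect of over 40% in size; top concentration of the series not given in the record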
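Detergent-free condition (0.00005% Triton X-100) in acetate buffer pH 5.5 with DTT. 1.5 nM enzyme and compound were pre-mixed 15 min, then 2 uM Z-FR-AMC substrate added; reaction progress from fluorescence change between first and third reads (60 s).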
The depositor's hits bear a star; ? = inconclusive; . = not tested or not shown; & = joins results of further samples; [ ] = dose if it differs, or a comment. Unless noted, the call rests on the fitted dose curve; in most records, active means well fitted curve in the direction sought with a large enough effect; inconclusive means small, poorly fitted or top-dose-only effect, or another doubt; inactive means no such curve, though single readings can be large; an effect the other way counts as inactive or inconclusive. Potency means the concentration at half of the fitted maximal effect. Compounds as they come. About 4.5% of those tested had a hit in this group.

SMILES	SARS PLP yeast	NS1 inh	StopGo reporter	Lassa entry inh	RE007 growth inh	Cruzain Triton	MARV entry inh	Cruzain inh noDet
O=C(Nc1cccc(-c2cnc3ccccc3n2)c1)c1ccc(Cl)cc1	-6%	9%	.	6%	-14%	2.8%	?	7%
COCC(=O)Nc1ccc(C(N)=O)cc1	1%	-3%	10%	4%	4%	0.0%	3%	-3%
Cc1cccc(N2C(=O)C(Cl)=C(N3CCOCC3)C2=O)c1	4%	3%	9%	-4%	6%	.	21%	.
CC(=O)c1c(C)nc(-c2ccc3c(c2)OCO3)n1O	-17%	-47%	?	5%	-25%	3.9%	?	-5%
CC1=CC(C)(C)NC(=S)N1c1cccc2ccccc12	19%	5%	-20%	-1%	-1%	0.6%	-13%	4%
Cc1nc(CSc2ccc(Cl)cc2)cc(N2CCOCC2)n1	-5%	1%	-17%	21%	-8%	1.2%	29%[46.1 µM]	-13%
CC1CCCCN1S(=O)(=O)c1cccc(S(=O)(=O)N2CCOCC2)c1 (stereo not given)	-2%	-5%	-20%	.	-12%	.	.	.
COC(=O)c1[nH]c(C)c(/C(O)=C2\C(=O)C(=O)N(CCN3CCOCC3)C2c2cccnc2)c1C (stereo not given)	-2%	7%	-13%	0%	-9%	-8.7%	4%	-15%
COc1ccc(-c2nn(-c3ccccc3)cc2/C=N/N2C(=O)CSC2=S)cc1	-4%	-54%	35%[activator]	?	-2%	-4.9%	?	?
Cc1ccc(C2c3[nH]c4ccccc4c3CCN2C(=O)CSc2ccccc2)cc1 (stereo not given)	.	.	-5%	10µM*	.	0.6%	.	-74%
NNC(=O)c1nc(-c2cccc(-n3cccc3)c2)no1	1%	6%	5%	-5%	-10%	.	-16%[46.1 µM]	.
COc1ccc(NC(=O)CSc2nnc(-c3nonc3NC(C)=O)n2C)cc1Cl	.	.	-25%	-19%[46.1 µM]	.	-1.0%	14%[46.1 µM]	5%
CC1CC(CCC(=O)NC(=S)Nc2ccc(S(N)(=O)=O)cc2)C(=O)O1 (stereo not given)	-1%	.	-6%	3%	2%	.	2%	.
O=C(c1cccc(N2CCCC2=O)c1)N1CCN(c2ccc(F)cc2)CC1	3%	-2%	-11%	.	11%	.	.	.
COc1ccc(OCc2cc(C(=O)NC3CCc4ccccc43)no2)c(Cl)c1 (stereo not given)	?	4%	2%	-1%	4%	.	-7%	.
COC(=O)c1ccc2c(=O)n(CCc3ccc(S(N)(=O)=O)cc3)c(SCC(=O)C(C)(C)C)nc2c1	.	.	-4%	?	.	-0.8%	.	16%
COc1ccccc1NCC(=O)n1nc(C)cc1C	-1%	2%	16%	-3%	8%	.	5%[46.1 µM]	.
CN(C)S(=O)(=O)c1ccc(NC(=O)COc2ncnc3sccc23)cc1	-5%	.	-4%	7%	3%	.	?	.
O=C(NCc1cccnc1)c1cc(Cl)ccc1[N+](=O)[O-]	12%	13%	-15%	-3%	-14%	-4.2%	?	-10%
COc1ccc(N(C(=O)Cn2cnc3ccccc32)C(C(=O)NC2CCCCC2)c2ccccc2)cc1 (stereo not given)	2%	5%	.	?	10%	-9.9%	?	-3%
O=C(C1CC1)N1CCN(c2nc3c(F)cc(F)cc3s2)CC1	.	.	28%	-2%[46.1 µM]	.	-5.8%	.	-11%
COCCN1CCN(c2c3c(nc4cc(-c5cccc(F)c5)nn24)CCC3)CC1	6%	10%	?	0%	-21%	-3.7%	-10%	-4%
O=C1CCCC2=C1C(c1cccc(Br)c1)n1nc(-c3ccco3)nc1N2 (stereo not given)	.	-26%	?	.	-9%	.	3%	.
COC(=O)c1ccc(NC(=O)CN(C)S(=O)(=O)c2ccc3c(c2)CCCC(=O)N3)cc1	.	.	32µM*	?	.	-0.9%	.	-8%
Cc1ccc2c(c1)N(CC(=O)N1CCC(O)CC1)C(=O)CO2	3%	11%	-8%	-14%	0%	.	-4%[46.1 µM]	.
Further structures follow:
SMILES	SARS PLP yeast	NS1 inh	StopGo reporter	Lassa entry inh	RE007 growth inh	Cruzain Triton	MARV entry inh	Cruzain inh noDet
CC(C)C[C@H](NC(=O)c1nc[nH]c1C(=O)N(C)Cc1ccccc1)C(=O)OC(C)(C)C	-3%	-1%	-13%	.	-9%	.	.	.
COc1cc(/C=C/C(=O)Nc2ccc(OC)c(S(=O)(=O)N3CCOCC3)c2)ccc1OC(F)F	2%	.	?	13µM*	14%	.	?	.
Cc1ccc2c(c1)c(N=NC(N)=S)c(O)n2Cc1ccccc1	13%	1%	-6%	-14%	5%	?	?	2.5µM*
Cc1cc(Cl)ccc1OCCCC(=O)OCC(N)=O	-2%	-9%	-17%	-24%	0%	.	-6%	.
COc1ccc(OCCSc2nc3nc(C)cc(C)n3n2)cc1	0%	-2%	-13%	.	0%	.	.	.
COc1ccc(C(C(=O)NCc2ccccc2)N(Cc2ccco2)C(=O)c2cnccn2)cc1 (stereo not given)	2%	-1%	10%	-5%	9%	.	11%[46.1 µM]	.
Cc1cc(C)n(-c2nc(C)nc(N)n2)n1	5%	-2%	-2%	10%	1%	2.0%	2%	-5%
COc1cc(-c2noc(C)c2C#CCO)cc(OC)c1OC	-7%	-5%	-5%	.	7%	.	.	.
CC(C)c1nc2ccc(C(=O)NCCCN3CCN(c4ccccc4F)CC3)cc2o1	.	.	-35%	1%[46.1 µM]	.	-0.1%	.	6%
Cc1cc(C)cc(NC(=O)C2CCCN(S(=O)(=O)c3c(C)noc3C)C2)c1 (stereo not given)	10%	13%	-11%	.	3%	.	.	.
CCOc1ccc(NC(=O)C2CCC(CNc3c(N4CCCCC4)c(=O)c3=O)CC2)cc1 (stereo not given)	1%	-6%	-28%	.	1%	.	.	.
COc1ccc(C(C)=O)cc1CSc1nc(NCc2ccccc2)c2ccccc2n1	.	.	-27%	?	.	-8.7%	.	4%
COc1ccc(O[C@H]2C=C[C@@H](c3ccccc3)O[C@@H]2COC(=O)CC/C(C)=N/O[C@@H](C)c2cn([C@H](CO)Cc3ccccc3)nn2)cc1	-9%	6%	.	?	.	-1.5%	?	?
O=C(COc1ccc2c(c1)oc(=O)c1ccccc12)N[C@@H](Cc1c[nH]c2ccccc12)C(=O)O	11%	?	-19%	.	5%	.	.	.
CC1CCC(Nc2ncnc3onc(-c4ccc(Cl)cc4)c23)CC1 (stereo not given)	.	.	-10%	-8%[46.1 µM]	.	-1.3%	.	2%
CC1CN(c2nc3ccccc3nc2C(C#N)C(=O)OC2CCCCC2)CC(C)O1 (stereo not given)	2%	-156%	4%	1%	1%	1.6%	-1%	15%
NS(=O)(=O)c1ccc(CCNC(=O)C2CCC(Cn3c(=S)[nH]c4ccccc4c3=O)CC2)cc1 (stereo not given)	-1%	.	2%	7%[46.1 µM]	-10%	.	?	.
Oc1ccc(-c2cc(-c3ccc(O)cc3)nc(-c3ccccc3)n2)cc1	-7%	9%	-10%	-16%[46.1 µM]	5%	.	?	.
COc1ccc(NC(=O)CN2CCN(S(=O)(=O)c3ccc(Cl)cc3)CC2)cc1Cl	-1%	-7%	-22%	?	3%	-0.2%	-10%&-10%	17%
O=S(=O)(Nc1ccc(F)cc1)c1ccc(NC(=S)Nc2ccccc2)cc1	-2%	6%	20%	11%	-1%	-5.5%	-22%	1%
COc1ccc(OC)c(-c2csc(NC(=O)c3ccc4c(c3)OCO4)n2)c1	3%	.	-4%	-20%	-12%	.	-2%[46.1 µM]	.
Cc1cc([N+](=O)[O-])nn1CC(=O)NC1CCCCC1	-1%	-6%	18%	5%[46.1 µM]	11%	.	2%[46.1 µM]	.
Cn1cc(C(=O)c2ccc(Cl)cc2Cl)cc1C(=O)N/N=C(\N)COc1ccc(Cl)cc1Cl	?	24%	?	?	-2%	-0.3%	?	?
CCn1cc(C(=O)NCCC(C)C)c(=O)c2cc(F)c(N3CCN(C)CC3)cc21	1%	-1%	10%	.	-3%	.	.	.

A second format for twelve compounds above.
Results follow in this order: SARS PLP yeast	NS1 inh	StopGo reporter	Lassa entry inh	RE007 growth inh	Cruzain Triton	MARV entry inh	Cruzain inh noDet
COc1ccc(O[C@H]2C=C[C@@H](c3ccccc3)O[C@@H]2COC(=O)CC/C(C)=N/O[C@@H](C)c2cn([C@H](CO)Cc3ccccc3)nn2)cc1
→ -9%	6%	.	?	.	-1.5%	?	?
O=C(COc1ccc2c(c1)oc(=O)c1ccccc12)N[C@@H](Cc1c[nH]c2ccccc12)C(=O)O
→ 11%	?	-19%	.	5%	.	.	.
CC1CCC(Nc2ncnc3onc(-c4ccc(Cl)cc4)c23)CC1 (stereo not given)
→ .	.	-10%	-8%[46.1 µM]	.	-1.3%	.	2%
CC1CN(c2nc3ccccc3nc2C(C#N)C(=O)OC2CCCCC2)CC(C)O1 (stereo not given)
→ 2%	-156%	4%	1%	1%	1.6%	-1%	15%
NS(=O)(=O)c1ccc(CCNC(=O)C2CCC(Cn3c(=S)[nH]c4ccccc4c3=O)CC2)cc1 (stereo not given)
→ -1%	.	2%	7%[46.1 µM]	-10%	.	?	.
Oc1ccc(-c2cc(-c3ccc(O)cc3)nc(-c3ccccc3)n2)cc1
→ -7%	9%	-10%	-16%[46.1 µM]	5%	.	?	.
COc1ccc(NC(=O)CN2CCN(S(=O)(=O)c3ccc(Cl)cc3)CC2)cc1Cl
→ -1%	-7%	-22%	?	3%	-0.2%	-10%&-10%	17%
O=S(=O)(Nc1ccc(F)cc1)c1ccc(NC(=S)Nc2ccccc2)cc1
→ -2%	6%	20%	11%	-1%	-5.5%	-22%	1%
COc1ccc(OC)c(-c2csc(NC(=O)c3ccc4c(c3)OCO4)n2)c1
→ 3%	.	-4%	-20%	-12%	.	-2%[46.1 µM]	.
Cc1cc([N+](=O)[O-])nn1CC(=O)NC1CCCCC1
→ -1%	-6%	18%	5%[46.1 µM]	11%	.	2%[46.1 µM]	.
Cn1cc(C(=O)c2ccc(Cl)cc2Cl)cc1C(=O)N/N=C(\N)COc1ccc(Cl)cc1Cl
→ ?	24%	?	?	-2%	-0.3%	?	?
CCn1cc(C(=O)NCCC(C)C)c(=O)c2cc(F)c(N3CCN(C)CC3)cc21
→ 1%	-1%	10%	.	-3%	.	.	.

High-throughput results as filed in PubChem.
